rRNA inh HTS – inhibitors of bacterial rRNA selective over humanized ribosomes | GFP signal change (wild-type ribosome), % (no concentration beside the values) | AID 720706 | E. coli WT GFP vs humanized-ribosome RFP mutants, fluorescence, 24 h; stronger effect = lower value; DMSO median 0, no signal -100 | 350,000 compounds, 1.6% hits;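 active means significant combined selectivity score with lowered wild-type GFP, culture density cut under 30%, mutant RFP and density less affected; inactive means any of these conditions unmet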; further: one replicate is shown; some compounds called inactive have numbers as strong as hits
FGF22 binding – shifts melting point of recombinant human FGF22 | Q9HCT0 | 340,000 compounds, 1.5% hits | calls only at 9.99 µM | recombinant FGF22 thermal shift, SYPRO orange fluorescence; percent of sucrose octasulfate shift, DMSO zero;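 active means melting point raised past a set limit in the mean and every replicate; three in four hits are not shown here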
Target sequence (Q9HCT0 whole entry, looked up): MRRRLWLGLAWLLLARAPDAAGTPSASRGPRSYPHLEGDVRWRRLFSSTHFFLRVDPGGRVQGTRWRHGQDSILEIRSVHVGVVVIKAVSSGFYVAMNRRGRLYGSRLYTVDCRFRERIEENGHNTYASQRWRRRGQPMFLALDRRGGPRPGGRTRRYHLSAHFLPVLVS
rRNA inh HTS OD600 – also measured in rRNA inh HTS; calls as there; OD600 change, %; measured here: OD600 growth;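 optical density of the mix in the first replicate; 0 = DMSO median and -100 = no signal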
rRNA inh HTS RFP – second read-out of rRNA inh HTS, no call of its own (marks repeat the call); RFP signal change, %; measured here: RFP humanized mutant strains;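 first replicate; 0 = DMSO median and -100 = no signal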
An asterisk follows results filed as active; i = inactive. These rows are one share of the data (hit frequency here may not be typical).

rRNA inh HTS,rRNA inh HTS OD600,rRNA inh HTS RFP,FGF22 binding,SMILES
4,11,0.4,i,O=C(C[C@H]1C=C[C@H](NC(=O)Cc2cccnc2)[C@@H](CO)O1)NCc1ccc2c(c1)OCO2
3,2,0.6,i,CO[C@@H]1CC[C@@H]2CCOc3ccc(C#N)cc3C(=O)N(C)CCCC(=O)N(C)C[C@@H]1O2
-59,-78,-11,i,Cc1ccccc1-c1ccc([C@H]2[C@@H](CO)N3CCCCN(C(=O)Nc4ccc(F)cc4)C[C@H]23)cc1
0,4,-4.2,i,COc1cccc(C(=O)Nc2ccc3c(c2)C(=O)N(C)C[C@@H](OC)[C@H](C)CN[C@H](C)CO3)c1
3,-1,1.7,i,O=C(C[C@@H]1C[C@H]2c3cc(NC(=O)Nc4ccc(F)cc4)ccc3O[C@H]2[C@@H](CO)O1)NCC1CC1
2,6,0.0,i,C[C@@H]1CN([C@@H](C)CO)C(=O)c2cccc(N(C)C)c2O[C@@H]1CN(C)C(=O)NC1CCCCC1
1,-3,-2.5,i,O=C(CCN1CCCCC1)N[C@@H]1CC[C@H](CCn2cc(-c3ccc(F)cc3)nn2)O[C@@H]1CO
2,2,-2.5,i,Cc1noc(C)c1NC(=O)N(C)C[C@H]1Oc2c(NC(=O)Nc3ccc(F)cc3)cccc2C(=O)N([C@H](C)CO)C[C@@H]1C
-1,2,1.3,i,O=C(C[C@H]1CC[C@@H]2[C@H](COC[C@H](O)CN2Cc2ccc(Cl)cc2)O1)Nc1nccs1
4,10,-1.7,i,C[C@@H]1CN([C@@H](C)CO)C(=O)c2cc(NC(=O)CCN3CCOCC3)ccc2O[C@H]1CN(C)Cc1ccc(Oc2ccccc2)cc1
2,1,0.3,i,Cc1noc(C)c1S(=O)(=O)N(C)C[C@@H]1Oc2ccc(NS(C)(=O)=O)cc2CC(=O)N([C@H](C)CO)C[C@H]1C
0,7,-1.6,i,COc1cccc(S(=O)(=O)Nc2ccc3c(c2)[C@@H]2C[C@@H](CC(=O)N(C)C)O[C@@H](CO)[C@@H]2O3)c1
-5,-5,2.0,i,C[C@@H]1CN([C@H](C)CO)C(=O)c2cccc(NC(=O)C3CCOCC3)c2O[C@H]1CN(C)Cc1ccc(-c2ccccc2)cc1
0,-5,2.5,i,O=C(C[C@H]1CC[C@@H](NC(=O)CCN2CCCCC2)[C@H](CO)O1)NCc1ccc(Cl)c(Cl)c1
3,1,-4.6,i,C[C@@H]1CN([C@@H](C)CO)C(=O)Cc2cc(NC(=O)CCCN(C)C)ccc2O[C@@H]1CN(C)S(=O)(=O)c1ccc(Cl)cc1
-1,1,-1.7,i,CC(=O)N1CCCCN2[C@H](CO)[C@@H](c3ccc(-c4ccc(C)cc4)cc3)[C@@H]2C1
-2,0,1.2,i,COc1ccccc1CNC(=O)C[C@@H]1C[C@H]2c3cc(NC(=O)CC4CC4)ccc3O[C@H]2[C@@H](CO)O1
4,3,-0.1,i,Cc1noc(C)c1NC(=O)Nc1ccc2c(c1)CC(=O)N([C@@H](C)CO)C[C@H](C)[C@H](CN(C)CC1CC1)O2
1,-14,7.5,i,COc1ccc(CN(C)C[C@H]2OCCCC[C@H](C)Oc3ccc(NS(=O)(=O)c4ccccc4)cc3C(=O)N([C@H](C)CO)C[C@H]2C)cc1
0,1,-3.1,i,C[C@@H]1CN([C@H](C)CO)S(=O)(=O)c2ccc(Br)cc2O[C@@H]1CN(C)C(=O)C1CC1
-4,-8,-5.5,i,COc1ccccc1NC(=O)N1C[C@H](O)COC[C@H]2O[C@H](CC(=O)NCCc3ccccc3)CC[C@@H]21
-1,7,0.8,i,COc1ccc(S(=O)(=O)N(C)C[C@H]2Oc3ccc(NC(=O)Nc4ccccc4)cc3C(=O)N([C@@H](C)CO)C[C@@H]2C)cc1
3,8,-2.9,i,C[C@H]1CN([C@@H](C)CO)C(=O)c2cc(/C=C/c3ccccc3)cnc2O[C@@H]1CN(C)Cc1cncnc1
-1,-4,0.5,i,CO[C@H]1CN(C)C(=O)c2ccc(NS(=O)(=O)CC(F)(F)F)cc2OC[C@@H](C)NC[C@@H]1C
5,9,1.8,i,C/C=C/c1ccc([C@H]2[C@@H](CO)N(C(=O)c3ccccc3)C23CN(C(C)=O)C3)cc1
-1,-3,0.2,i,C[C@@H]1CN([C@@H](C)CO)C(=O)c2cccc(NS(=O)(=O)c3cccs3)c2O[C@@H]1CN(C)S(=O)(=O)c1ccccc1
-8,-11,1.4,i,CCC(=O)N(C)C[C@@H]1Oc2cc(-c3ccccc3)ccc2S(=O)(=O)N([C@H](C)CO)C[C@@H]1C
2,16,-3.3,i,COCC(=O)N1[C@H](C#N)[C@H](c2ccccc2-c2cccc(F)c2)[C@@H]1CO
3,3,-1.0,i,CCNC(=O)C[C@@H]1CC[C@H]2[C@@H](COc3ccc(NC(C)=O)cc3C(=O)N2C)O1
4,5,-1.2,i,CN1CCN(C(=O)C[C@@H]2CC[C@H]3[C@@H](COc4ccc(NC(=O)C5CCCC5)cc4C(=O)N3C)O2)CC1

Following part
rRNA inh HTS,rRNA inh HTS OD600,rRNA inh HTS RFP,FGF22 binding,SMILES
0,-7,2.4,i,C[C@@H]1CN([C@H](C)CO)C(=O)c2c(c3ccccc3n2C)-c2ccccc2CO[C@@H]1CN(C)C(=O)[C@H]1CCCN1C
3,3,-1.2,i,N#C[C@@H]1[C@@H](c2ccc(-c3ccccc3F)cc2)[C@@H](CO)N1C(=O)C1CC1
-4,-6,0.1,i,Cc1ccc(S(=O)(=O)N(C)C[C@H]2Oc3c(NC(=O)NC(C)C)cccc3C(=O)N([C@@H](C)CO)C[C@@H]2C)cc1
0,1,-2.4,i,CCNC(=O)[C@H]1[C@H](CO)[C@H]2Cn3c(ccc(-c4ccc(F)cc4)c3=O)[C@@H]1N2C(=O)C1CC1
5,5,-3.3,i,CC(=O)N(C)C[C@H]1Oc2cc(C#C[C@H](C)O)ccc2S(=O)(=O)N([C@H](C)CO)C[C@@H]1C
-1,2,0.5,i,O=C(C[C@@H]1CC[C@@H]2NC[C@H](O)COC[C@H]2O1)NCCc1ccccc1
-7,-3,-0.7,i,O=C(NC1CCCC1)[C@@H]1[C@@H](CO)[C@@H]2Cn3c(ccc(C4=CCCCC4)c3=O)[C@H]1N2CC1CC1
-1,-8,0.9,i,Cc1noc(C)c1S(=O)(=O)N(C)C[C@H]1OCCCC[C@H](C)Oc2ccc(NS(=O)(=O)c3ccc(F)cc3)cc2C(=O)N([C@H](C)CO)C[C@@H]1C
0,1,0.9,i,C[C@H](CO)N1C[C@H](C)[C@H](CN(C)C(=O)Cc2ccccc2)OCCCC[C@H](C)Oc2ccc(NC(=O)Cc3ccccc3)cc2C1=O
0,4,-1.1,i,CO[C@H]1CN(C)C(=O)c2cc(NC(=O)C3CC3)ccc2OC[C@@H](C)N(CC2CCOCC2)C[C@@H]1C
2,14,-3.3,i,C[C@H]1CN([C@@H](C)CO)S(=O)(=O)c2ccc(C3=CCCCC3)cc2O[C@@H]1CN(C)C(=O)CN(C)C
-2,11,-0.3,i,O=C(NCCc1ccccc1)[C@@H]1[C@@H](CO)[C@@H]2Cn3c(ccc(-c4cccc(F)c4)c3=O)[C@H]1N2
8,14,0.7,i,COc1ccc(C#Cc2cnc3c(c2)C(=O)N([C@@H](C)CO)C[C@@H](C)[C@@H](CN(C)C(=O)CN(C)C)O3)cc1
-5,-4,-1.9,i,C[C@H]1CCCCO[C@H](CN(C)C(=O)Nc2ccccc2)[C@@H](C)CN([C@@H](C)CO)C(=O)c2cc(NS(=O)(=O)c3ccccc3)ccc2O1
1,24,0.6,i,CCCNC(=O)N1C[C@@H]2[C@H](c3ccccc31)[C@@H](CO)N2Cc1ccccc1F
-1,3,-0.5,i,COc1ccc(S(=O)(=O)Nc2ccc3c(c2)C(=O)N([C@H](C)CO)C[C@@H](C)[C@H](CN(C)C(=O)Nc2ccc4c(c2)OCO4)OCCCC[C@H](C)O3)cc1
-2,-4,-3.3,i,COc1ccc(NC(=O)N(C)C[C@H]2OCCCC[C@@H](C)Oc3ccc(NC(=O)Nc4ccc(F)cc4)cc3C(=O)N([C@H](C)CO)C[C@@H]2C)cc1
-58,-78,-21,i,O=C(C[C@@H]1CC[C@H]2[C@@H](COC[C@@H](O)CN2C(=O)Nc2ccc(Cl)c(Cl)c2)O1)NCc1ccc(Cl)c(Cl)c1
-2,-8,3.0,i,COc1ccc(S(=O)(=O)N(C)C[C@@H]2OCCCC[C@@H](C)Oc3ccc(NC(=O)Nc4c(C)noc4C)cc3C(=O)N([C@@H](C)CO)C[C@H]2C)cc1
-1,-10,-1.4,i,C[C@H](CO)N1C[C@H](C)[C@H](CN(C)C(=O)Nc2cc(F)ccc2F)Oc2ncc(-c3cccc(F)c3)cc2C1=O
9,24,-0.2,i,COc1ccc(Cc2c(-c3ccc(F)cc3)nc3ccc(C)cn23)c(C)c1
3,4,-1.3,i,Cc1noc(C)c1NC(=O)Nc1ccc2c(c1)C(=O)N([C@H](C)CO)C[C@@H](C)[C@@H](CN(C)C(=O)Nc1cccc3ccccc13)O2
-4,-1,2.7,i,C[C@@H]1CN([C@H](C)CO)C(=O)Cc2cc(NC(=O)C3CCCCC3)ccc2O[C@H]1CN(C)Cc1ccccc1
1,-7,-0.1,i,C[C@@H]1CN([C@H](C)CO)S(=O)(=O)c2ccc(-c3ccncc3)cc2O[C@H]1CN(C)C
12,14,9.6,i,O=Cc1ccc(/C=C2\c3ccccc3C(=O)N2c2ccccc2)o1
-3,-12,-4.0,i,CCCNC(=O)C[C@H]1C[C@H]2c3cc(NS(=O)(=O)c4ccc(OC)cc4)ccc3O[C@H]2[C@@H](CO)O1
-3,20,2.4,i,CC(=O)N1[C@H](CN(CC2CCC2)C(=O)CC2CC2)[C@@H](c2ccccc2)[C@@H]1CO
-18,-26,-1.8,i,COCC#Cc1ccc2c(c1)O[C@@H](CN(C)Cc1ccncc1)[C@H](C)CN([C@@H](C)CO)S2(=O)=O
0,13,1.8,i,COc1ccc(NC(=O)Nc2cccc3c2O[C@@H](CN(C)C(=O)Nc2ccc(F)cc2)[C@H](C)CN([C@@H](C)CO)C3=O)cc1
0,-3,-1.0,i,Cc1noc(C)c1NC(=O)Nc1ccc2c(c1)C(=O)N([C@H](C)CO)C[C@@H](C)[C@H](CN(C)C(=O)Nc1cccc3ccccc13)OCCCC[C@@H](C)O2

Individual results from above:
`COCC#Cc1ccc2c(c1)O[C@@H](CN(C)Cc1ccncc1)[C@H](C)CN([C@@H](C)CO)S2(=O)=O` in rRNA inh HTS RFP = -1.8
`O=C(C[C@@H]1CC[C@@H]2NC[C@H](O)COC[C@H]2O1)NCCc1ccccc1` in rRNA inh HTS RFP = 0.5
`C[C@@H]1CN([C@H](C)CO)S(=O)(=O)c2ccc(-c3ccncc3)cc2O[C@H]1CN(C)C` in rRNA inh HTS = 1

(continued)
rRNA inh HTS,rRNA inh HTS OD600,rRNA inh HTS RFP,FGF22 binding,SMILES
10,9,-0.5,i,CCOC(=O)C1=C(C(=O)OCC)C2N(Cc3ccc(C(F)(F)F)cc3)c3ccccc3[C@@]23C[C@@H](C(=O)OC)N(S(=O)(=O)c2cccs2)C3=N1 (stereo partly drawn)
5,6,3.5,i,Cc1ccc(S(=O)(=O)NCC[C@@H]2CC[C@H](NC(=O)CCN3CCCCC3)[C@H](CO)O2)cc1
2,9,-2.6,i,Cc1noc(C)c1S(=O)(=O)Nc1ccc2c(c1)C(=O)N([C@@H](C)CO)C[C@H](C)[C@@H](CN(C)C(=O)NC(C)C)OCCCC[C@@H](C)O2
-1,-7,3.2,i,C[C@H](CO)N1C[C@H](C)[C@H](CN(C)C(=O)c2cccc(F)c2)Oc2cc(C#CC3CC3)ccc2S1(=O)=O
-2,-1,-2.1,i,CN1C(=O)c2cc(NC(=O)c3ccc4c(c3)OCO4)ccc2OC[C@H]2O[C@@H](CC(=O)O)CC[C@H]21
-2,-7,4.0,i,COc1ccc(S(=O)(=O)Nc2ccc3c(c2)C(=O)N([C@@H](C)CO)C[C@H](C)[C@@H](CN(C)C(=O)NC2CCCCC2)OCCCC[C@H](C)O3)cc1
4,5,-1.3,i,CCCNC(=O)[C@H]1[C@H](CO)[C@H]2Cn3c(ccc(-c4ccccc4)c3=O)[C@@H]1N2C(=O)CC1CC1
-2,-7,-0.5,i,O=C(C[C@H]1CC[C@H](NC(=O)Nc2cccc(F)c2)[C@H](CO)O1)NCC1CC1
4,10,-0.9,i,C[C@H]1CN([C@@H](C)CO)C(=O)c2cc(NC(=O)c3ccncc3)ccc2O[C@H]1CN(C)S(=O)(=O)c1cn(C)cn1

Some of the entries above, reformatted:
| Molecule | rRNA inh HTS | rRNA inh HTS OD600 | rRNA inh HTS RFP | FGF22 binding |
| --- | --- | --- | --- | --- |
| C[C@H](CO)N1C[C@H](C)[C@H](CN(C)C(=O)c2cccc(F)c2)Oc2cc(C#CC3CC3)ccc2S1(=O)=O | -1 | -7 | 3.2 | i |
| CN1C(=O)c2cc(NC(=O)c3ccc4c(c3)OCO4)ccc2OC[C@H]2O[C@@H](CC(=O)O)CC[C@H]21 | -2 | -1 | -2.1 | i |

Full records, looked up by structure.
COc1ccc(S(=O)(=O)Nc2ccc3c(c2)C(=O)N([C@@H](C)CO)C[C@H](C)[C@@H](CN(C)C(=O)NC2CCCCC2)OCCCC[C@H](C)O3)cc1 is listed with rRNA inh HTS = -2; rRNA inh HTS OD600 = -7; rRNA inh HTS RFP = 4.0; FGF22 binding = i
O=C(C[C@H]1CC[C@H](NC(=O)Nc2cccc(F)c2)[C@H](CO)O1)NCC1CC1 is listed with rRNA inh HTS = -2; rRNA inh HTS OD600 = -7; rRNA inh HTS RFP = -0.5; FGF22 binding = i
